# STAT3 SMM: STAT3 (human) binding; hit rate 0.2% among 17,000; Small molecule microarray, His-STAT3 binding, anti-His fluorescence; P40763; calls only;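 active = compounds whose four printed spots each show fluorescence over background unusually high for their array block, chance value under 7%; compounds were printed on slides so no solution concentration is given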;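 note: about 2 pmol printed per array spot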
# mut p53 SMM: binders of human mutant p53; small molecule microarray binding, anti-GST fluorescence; calls only; hit rate 0.4% among 17,000; AID 624136;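 active = compounds whose four printed spots each glow above background more than chance allows, each with a p-value under 7%; compounds were printed on slides so no solution concentration is given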;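 note: about 2 pmol printed per array spot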
# Myc binder: binders of human c-Myc | small molecule microarray, His-c-Myc binding, anti-His fluorescence | hit rate 1.5% among 17,000 | AID 624141 | calls only | P01106;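 active = spot fluorescence over background with P-value below 7% in all four replicate spots, showing protein binding; compounds were printed on slides so no solution concentration is given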;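 note: score is binary with 100 for all four spots passing and 0 otherwise; about 2 pmol printed per array spot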
# Target sequence (P01106 whole entry, looked up): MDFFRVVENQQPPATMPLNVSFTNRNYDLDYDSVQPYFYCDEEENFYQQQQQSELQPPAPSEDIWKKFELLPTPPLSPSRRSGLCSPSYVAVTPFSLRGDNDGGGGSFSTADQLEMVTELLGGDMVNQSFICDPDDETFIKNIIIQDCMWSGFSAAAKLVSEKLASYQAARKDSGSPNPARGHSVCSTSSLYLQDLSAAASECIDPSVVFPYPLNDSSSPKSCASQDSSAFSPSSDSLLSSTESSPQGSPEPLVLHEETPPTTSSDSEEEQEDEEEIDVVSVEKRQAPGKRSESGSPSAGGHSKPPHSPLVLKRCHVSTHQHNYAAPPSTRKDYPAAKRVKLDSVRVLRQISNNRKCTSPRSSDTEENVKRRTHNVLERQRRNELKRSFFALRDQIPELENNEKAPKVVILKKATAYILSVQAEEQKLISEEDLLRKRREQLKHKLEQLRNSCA
# ID4 SMM: ID4 (human) binding; P47928; small molecule microarray, Flag-ID4 binding, fluorescence F/B; calls only; hit rate 1.2% among 31,000; AID 624137;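 active = spot signal over background at p below 0.07 in all four prints; compounds were printed on slides so no solution concentration is given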;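 note: a binder raises fluorescence above local background on the spot; about 2 pmol printed per array spot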
# Target sequence (P47928 whole entry, looked up): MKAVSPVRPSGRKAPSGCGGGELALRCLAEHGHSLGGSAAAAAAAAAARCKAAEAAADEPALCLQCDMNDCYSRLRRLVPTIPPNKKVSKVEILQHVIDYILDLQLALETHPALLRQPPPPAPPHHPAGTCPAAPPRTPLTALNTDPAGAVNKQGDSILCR
# Calls only; i = inactive; . = no result given; + = active, no number. A portion of the library (hit frequency here may not be typical).
SMILES,STAT3 SMM,mut p53 SMM,Myc binder,ID4 SMM
C[C@@H]1CN([C@H](C)CO)C(=O)c2cc(NS(=O)(=O)c3ccccc3)ccc2O[C@@H]1CN(C)C,i,i,i,i
O=C(c1ccccc1)c1ccc(COC(=O)c2ccccc2NC(=O)c2ccco2)cc1,i,i,i,i
C[C@@H]1O[C@@H](O[C@H]2[C@H](O)[C@@H](O[C@@H]3O[C@H](CO)[C@@H](O)[C@H](O)[C@H]3O)[C@H](O[C@H]3CC[C@@]4(C)C(=CC[C@@H]5C4CC[C@@]4(C)C5C[C@@H]5O[C@]6(CC[C@@](C)(CO)O6)[C@@H](C)[C@@H]54)C3)O[C@@H]2CO)[C@H](O)[C@H](O)[C@H]1O (stereo partly specified),i,i,i,i
C[C@H](CO)N1C[C@H](C)[C@@H](CN(C)S(=O)(=O)c2cn(C)cn2)Oc2c(NC(=O)Nc3ccc(C(F)(F)F)cc3)cccc2C1=O,i,i,i,i
O=C(CSc1ncccn1)Nc1ccc(Cl)cc1Cl,i,i,i,i
Cc1cc(C(=O)Nc2cccc3c2O[C@@H](CN(C)C(=O)NC2CCCCC2)[C@H](C)CN([C@@H](C)CO)C3=O)n(C)n1,i,i,i,i
C[C@H]1CN([C@@H](C)CO)C(=O)c2cccc(NC(=O)c3cnccn3)c2O[C@@H]1CN(C)S(=O)(=O)c1ccc(F)cc1,i,i,i,.
C[C@@H]1CN([C@H](C)CO)C(=O)c2cc(NS(C)(=O)=O)ccc2O[C@@H](C)CCCCO[C@H]1CN(C)S(=O)(=O)c1ccccc1,i,i,i,i
C[C@H](CO)N1C[C@H](C)[C@H](CN(C)S(=O)(=O)c2ccc(Cl)cc2)OCCCC[C@H](C)Oc2ccc(NC(=O)C3CCCCC3)cc2C1=O,i,i,i,.
C[C@H](CO)N1C[C@H](C)[C@H](CN(C)C(=O)Nc2ccc3c(c2)OCCO3)OCc2cnnn2CCCC1=O,i,i,i,i
CC(c1ccccc1)n1c(CCCO)nc2ccccc21 (stereo unspecified),i,i,i,i
Cn1c(NCc2ccco2)nc2c1c(=O)n(Cc1ccc(Br)cc1)c(=O)n2C,i,i,i,i
C[C@H]1CN([C@@H](C)CO)C(=O)Cc2cc(NC(=O)C3CCCCC3)ccc2O[C@@H]1CN(C)C(=O)Nc1ccccc1,i,i,i,.
COc1ccc(S(=O)(=O)Nc2ccc3c(c2)C(=O)N([C@@H](C)CO)C[C@H](C)[C@H](CN(C)S(=O)(=O)c2cccs2)OCCCC[C@H](C)O3)cc1,i,i,i,.
C[C@H]1CN([C@@H](C)CO)C(=O)c2cccc(NC(=O)NC3CCCCC3)c2O[C@H]1CN(C)Cc1ccc(C(=O)O)cc1,i,i,i,i
COc1ccc(C(C)=O)c(O)c1,i,i,i,i
COc1cc(NC(=O)CSc2nnc(-c3ccncc3)n2C)cc(OC)c1,i,i,i,i
Cc1ccc(S(=O)(=O)NC(C)C(=O)Nc2ccc(C)c(Cl)c2)cc1 (stereo unspecified),i,i,i,i
C[C@H](CO)N1C[C@H](C)[C@@H](CN(C)CC2CC2)Oc2ccc(NC(=O)Cc3cn(C)c4ccccc34)cc2CC1=O,i,i,i,i
Cc1noc(C)c1NC(=O)N(C)C[C@H]1Oc2ccc(NC(=O)Nc3ccc4c(c3)OCO4)cc2C(=O)N([C@H](C)CO)C[C@@H]1C,i,i,i,i
Cc1noc(C)c1S(=O)(=O)Nc1ccc2c(c1)CC(=O)N([C@H](C)CO)C[C@H](C)[C@H](CN(C)C(=O)Nc1ccc(F)cc1)O2,i,i,i,i
COCCCNC(=O)[C@]1(Cc2ccccc2CN=[N+]=[N-])N=C(c2ccc(OCCCO)cc2)O[C@@H]1c1ccccc1,i,i,i,i
C[C@@H]1CN([C@@H](C)CO)C(=O)c2cc(NC(=O)C3CC3)ccc2O[C@H]1CN(C)C(=O)Nc1ccc(C(F)(F)F)cc1,i,i,i,i
COc1ccc(-c2cc3ccccc3oc2=O)cc1NC(=O)COc1ccc(Br)cc1,i,i,i,i
C[C@H](CO)N1C[C@H](C)[C@@H](CN(C)C)Oc2ccc(NS(=O)(=O)c3ccc(Cl)cc3)cc2C1=O,i,i,i,i
C[C@H](CO)N1C[C@H](C)[C@H](CN(C)C(=O)c2ccncc2)OCCCC[C@H](C)Oc2ccc(NS(C)(=O)=O)cc2C1=O,i,i,i,i
CCOC(=O)c1c(NC(=O)CSc2ncn[nH]2)sc(C)c1C,i,i,i,i
CNC(=O)CN(c1ccc(C)cc1)S(=O)(=O)c1ccccc1,i,i,i,i
C=C1CCC2(C(=O)O)CCC3(C)C(=CCC4C5(C)C[C@@H](O)[C@H](O)C(C)(CO)C5CCC43C)C2C1C (stereo partly specified),i,i,+,.
CN(C)CCn1nnnc1SCC1=C(C(=O)O)N2C(=O)[C@@H](NC(=O)Cc3csc(N)n3)[C@H]2SC1,i,i,i,i
Cc1cccc(/C=C/c2ccccc2)n1,i,i,i,i
COC(=O)c1c(NC(=S)Nc2cc3oc4ccccc4c3cc2OC)sc2c1CCC2,i,i,i,i
CNC[C@H]1Oc2c(NC(=O)C3CCOCC3)cccc2C(=O)N([C@H](C)CO)C[C@@H]1C,i,i,i,i
CC(C)NC(=O)N(C)C[C@@H]1OCCCC[C@@H](C)Oc2ccc(NC(=O)Nc3ccccc3)cc2C(=O)N([C@@H](C)CO)C[C@@H]1C,i,i,i,i
Cc1noc(C)c1S(=O)(=O)N(C)C[C@@H]1Oc2ccc(NS(=O)(=O)c3cccs3)cc2CC(=O)N([C@@H](C)CO)C[C@H]1C,i,i,i,i
C[C@@H]1CCCCO[C@H](CN(C)C(=O)Nc2ccc(C(F)(F)F)cc2)[C@@H](C)CN([C@@H](C)CO)C(=O)c2cc(NC(=O)Cc3ccccc3)ccc2O1,i,+,i,.
O=C(COc1ccccc1[N+](=O)[O-])Nc1ccccc1N1CCOCC1,i,i,i,i
CNC[C@H]1Oc2ccc(NC(=O)Nc3ccc(OC)cc3)cc2C(=O)N([C@@H](C)CO)C[C@H]1C,i,i,i,i
O=C(Oc1ccccc1)c1cccc(COC(=O)c2cnccn2)c1,i,i,i,i
CC(=O)CSc1nnc(-c2cccnc2)o1,i,i,i,i
O=C(Cn1c(NCCCO)nc2ccccc21)c1ccc(Cl)c(Cl)c1,i,i,i,i
COc1ccc(S(=O)(=O)N(C)C[C@H]2Oc3ccc(NC(=O)NC(C)C)cc3C(=O)N([C@H](C)CO)C[C@@H]2C)cc1,i,i,i,i
COc1ccc(CN(C)C[C@@H]2Oc3c(NS(=O)(=O)c4cn(C)cn4)cccc3C(=O)N([C@H](C)CO)C[C@@H]2C)cc1,i,i,i,i
C[C@H]1CN([C@@H](C)CO)C(=O)Cc2cc(NC(=O)c3ccncc3)ccc2O[C@H]1CN(C)Cc1ccccc1,i,i,i,.
CNC[C@H]1OCCCC[C@@H](C)Oc2ccc(NC(=O)C3CCCCC3)cc2C(=O)N([C@@H](C)CO)C[C@@H]1C,i,i,i,i
C[C@H]1CN([C@@H](C)CO)C(=O)CCCn2cc(nn2)CO[C@@H]1CN(C)C(=O)Nc1ccc(N2CCCCC2)cc1,i,i,i,i
CCO[C@@H]1OC(C(=O)NCc2ccccc2)=C[C@H](c2ccc(Br)cc2)[C@H]1CCCO,i,i,i,i
C[C@H](CO)N1C[C@H](C)[C@@H](CN(C)C(=O)Nc2ccc(F)cc2)Oc2ccc(N(C)C)cc2C1=O,i,i,i,i
CC(=O)OCC(Cc1ccccc1)NC(=O)C(Cc1ccccc1)NC(=O)c1ccccc1 (stereo unspecified),i,i,i,i
C[C@@H]1CN([C@H](C)CO)C(=O)c2cc(NS(=O)(=O)c3cccs3)ccc2O[C@H]1CN(C)Cc1ccc(-c2ccccc2)cc1,i,i,i,i

# (list continues)
SMILES,STAT3 SMM,mut p53 SMM,Myc binder,ID4 SMM
COc1cc2c(cc1OC)CN(C(=O)[C@@H]1[C@H]3C(=O)O[C@H](c4ccccc4)[C@H](c4ccccc4)N3[C@H](c3ccccc3OCCO)[C@@]13C(=O)Nc1ccc(C#CCCO)cc13)CC2,i,i,i,i
C=CCN(Cc1ccccc1)C(=O)[C@H]1N(Cc2ccc(OC)cc2)C(=O)[C@@H]2[C@@H](C(=O)O)C3C=CC21O3 (stereo partly specified),i,i,i,i
C=CC1c2cc(O)c(OC)cc2CCN1Cc1cc2c(cc1Br)OCO2 (stereo unspecified),i,i,i,i
C[C@H](CO)N1C[C@H](C)[C@@H](CN(C)CC2CC2)Oc2ccc(NC(=O)Nc3ccc4c(c3)OCO4)cc2CC1=O,i,i,i,i
COc1cc(C)c(C)cc1S(=O)(=O)N1CCCCC1c1cccnc1 (stereo unspecified),i,i,i,i
CNC[C@H]1OCCCC[C@@H](C)Oc2ccc(NC(=O)Nc3ccccc3)cc2C(=O)N([C@@H](C)CO)C[C@@H]1C,i,i,i,i
Cc1cc(C)c(S(=O)(=O)NC(CC(=O)O)c2ccccc2)cc1C (stereo unspecified),i,i,i,i
COC(=O)c1cc(NC(=O)CSC2=NCCS2)cc(C(=O)OC)c1,i,i,i,i
C[C@@H]1CN([C@H](C)CO)C(=O)c2cccc(NC(=O)c3nc4ccccc4s3)c2O[C@H]1CN(C)S(=O)(=O)c1cn(C)cn1,i,i,i,i
O=C(NC1CC1)C1=C[C@H](C2CCCCC2)C[C@H](OCc2ccc(CO)cc2)O1,i,i,i,.
C[C@H](CO)N1C[C@H](C)[C@@H](CN(C)C(=O)Nc2ccccc2)Oc2c(NC(=O)C3CCOCC3)cccc2C1=O,i,i,i,i
[N-]=[N+]=NCc1ccccc1C[C@]1(C(=O)N2CCOCC2)N=C(c2ccc(OCCCO)cc2)O[C@H]1c1ccccc1,i,i,i,i
C[C@H](CO)N1C[C@H](C)[C@@H](CN(C)C(=O)Nc2ccc(F)cc2)Oc2c(NC(=O)Nc3ccc(F)cc3)cccc2C1=O,i,i,i,i
COc1ccc(-c2cc(C)nc(SCC(=O)Nc3ccccc3F)n2)cc1,i,i,i,i
Cc1noc(C)c1S(=O)(=O)Nc1cccc2c1O[C@@H](CN(C)CC1CC1)[C@@H](C)CN([C@@H](C)CO)C2=O,i,i,i,i
CCOC(=O)C(C)Sc1nc2ccc(I)cc2c(=O)n1-c1ccccc1OC (stereo unspecified),i,i,i,i
Cc1noc(C)c1NC(=O)N(C)C[C@H]1Oc2c(NC(=O)c3nc4ccccc4s3)cccc2C(=O)N([C@H](C)CO)C[C@@H]1C,i,i,i,i
COc1ccc(CN(C)C[C@H]2Oc3ccc(NC(=O)Nc4cccc5ccccc45)cc3CC(=O)N([C@@H](C)CO)C[C@H]2C)cc1,i,i,i,i
C[C@@H]1CN([C@@H](C)CO)C(=O)c2cc(NC(=O)Nc3cccc4ccccc34)ccc2O[C@H]1CN(C)C(=O)Nc1cccc2ccccc12,i,i,i,i
CC(C)NC(=O)N(C)C[C@@H]1OCCCC[C@H](C)Oc2ccc(NS(=O)(=O)c3ccccc3)cc2C(=O)N([C@H](C)CO)C[C@@H]1C,i,i,i,i

# A draw from above in order of length of the SMILES, falling.
SMILES,STAT3 SMM,mut p53 SMM,Myc binder,ID4 SMM
CC(C)NC(=O)N(C)C[C@@H]1OCCCC[C@H](C)Oc2ccc(NS(=O)(=O)c3ccccc3)cc2C(=O)N([C@H](C)CO)C[C@@H]1C,i,i,i,i
C[C@@H]1CN([C@@H](C)CO)C(=O)c2cc(NC(=O)Nc3cccc4ccccc34)ccc2O[C@H]1CN(C)C(=O)Nc1cccc2ccccc12,i,i,i,i
C[C@@H]1CN([C@H](C)CO)C(=O)c2cccc(NC(=O)c3nc4ccccc4s3)c2O[C@H]1CN(C)S(=O)(=O)c1cn(C)cn1,i,i,i,i
Cc1noc(C)c1NC(=O)N(C)C[C@H]1Oc2c(NC(=O)c3nc4ccccc4s3)cccc2C(=O)N([C@H](C)CO)C[C@@H]1C,i,i,i,i
COc1ccc(CN(C)C[C@H]2Oc3ccc(NC(=O)Nc4cccc5ccccc45)cc3CC(=O)N([C@@H](C)CO)C[C@H]2C)cc1,i,i,i,i
Cc1noc(C)c1S(=O)(=O)Nc1cccc2c1O[C@@H](CN(C)CC1CC1)[C@@H](C)CN([C@@H](C)CO)C2=O,i,i,i,i
C[C@H](CO)N1C[C@H](C)[C@@H](CN(C)C(=O)Nc2ccccc2)Oc2c(NC(=O)C3CCOCC3)cccc2C1=O,i,i,i,i
[N-]=[N+]=NCc1ccccc1C[C@]1(C(=O)N2CCOCC2)N=C(c2ccc(OCCCO)cc2)O[C@H]1c1ccccc1,i,i,i,i
O=C(NC1CC1)C1=C[C@H](C2CCCCC2)C[C@H](OCc2ccc(CO)cc2)O1,i,i,i,.
CCOC(=O)C(C)Sc1nc2ccc(I)cc2c(=O)n1-c1ccccc1OC (stereo unspecified),i,i,i,i

# Other structures
SMILES,STAT3 SMM,mut p53 SMM,Myc binder,ID4 SMM
C[C@H](CO)N1C[C@H](C)[C@H](CN(C)Cc2ccccc2)OCc2cn(nn2)CCCC1=O,i,i,i,i
O=C(O)COc1cccc(-c2ocnc2-c2nc(-c3ccccc3)c(-c3ccccc3)o2)c1,i,i,i,.
C[C@@H]1CN([C@@H](C)CO)C(=O)Cc2cc(NS(=O)(=O)c3cn(C)cn3)ccc2O[C@@H]1CN(C)C(=O)Nc1ccc(F)cc1,i,i,i,i
CNC[C@@H]1Oc2ccc(NS(=O)(=O)c3ccccc3)cc2CC(=O)N([C@H](C)CO)C[C@H]1C,i,i,i,i
NC(=O)CSc1nc(N)c(-c2ccccc2)c(=O)[nH]1,i,i,i,i

# From PubChem BioAssay
